Screening results as filed in PubChem BioAssay.
NPYLR7 ag: activates Aedes aegypti NPYLR7 receptor; actives 0.15% (n = 270,000); HEK293T NPYLR7/Galpha15, GCaMP6s calcium fluorescence; AID 1259423; activation, % at 10 µM; in the data active = activation above about 40%;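 also: 0% = vehicle and 100% = reference agonist at the receptor; some compounds past the cut are filed as inactive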
NPYLR7 ag max-min: second read-out of NPYLR7 ag, no call of its own (marks repeat the call); activation, %; measured here: Max-Min RFU normalised activation; some inactives read as strong as hits;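 span of the calcium signal over five minutes; 0% = vehicle and 100% = native peptide agonist; compound fluorescence can raise it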
The depositor's hits bear a star.

SMILES | NPYLR7 ag | NPYLR7 ag max-min
CNC(=O)[C@@]1(OCc2ccccc2F)CC(OCc2cccc(OC(F)(F)F)c2)[C@@H]2OC(C)(C)O[C@@H]2C1 (some centres not stated) | 8 | 10
Cn1ccnc1-c1ccc(NC[C@H]2CCc3ccccc3O2)nn1 | -6 | -7
CC(=O)c1ccc(-n2c(CC(=O)O)cc3c2CC(C)(C)CC3=O)cc1 | 4 | 2
COCCn1c(N)cc(=O)n(CC(=O)NC2CCCC(C)C2C)c1=O (configuration not stated) | 9 | 6
CCOC(=O)C1(C)CCCCCN1C(=O)c1ccco1 (configuration not stated) | -3 | -9
COCc1noc2c1C(c1ccc(F)cc1)C(C#N)C(N)=N2 (configuration not stated) | 8 | 5
Cc1cccc(CNC(=O)C(C2CCCC2)N2CCN(C(=O)CCc3ccccc3)CC2)c1 (configuration not stated) | -4 | -5
CN1CCC(CNC(=O)c2cc3c(C(F)(F)F)nn(C)c3s2)C1 (configuration not stated) | -3 | -7
C=CCNC(=O)C1CCC(=O)N1C1CCCCC1 (configuration not stated) | 23 | 15
Cc1oc(CC(C)C)c(CN2CCCC2)c1C(=O)O | -1 | -1
Cc1cccc(NC(=O)CNC(=O)CN(CC(C)C)C(=O)c2ccc(C)c([N+](=O)[O-])c2)c1 | 0 | 11
C=CCCC(O)(CCC=C)c1ccc(CN(Cc2cccc(F)c2)Cc2ccco2)o1 | -9 | -4
COc1ccc(NC(=Nc2nc(C)cc(C)n2)NC(=O)c2ccccc2)cc1 | -4 | -6
COC(=O)c1ccccc1NC(=O)CC(C(=O)O)N1CCNCC1 (configuration not stated) | 24 | 14
CCCCN(C(=O)NC(C)(C)C)c1c(N)n(CCCC)c(=O)[nH]c1=O | 8 | 6
CC(C)Cc1cc(CNC(=O)C2CCCN2S(C)(=O)=O)no1 (configuration not stated) | 23 | 15
COCCC(C)(O)CNC(=O)Nc1ccccc1F (configuration not stated) | 0 | -1
CCc1c(C)nc(N)nc1N1N=C1SCc1ccccc1 | 17 | 14
O=C(c1cccs1)N(Cc1cccc(C(F)(F)F)c1)CC1CC(c2ccc(F)cc2)=NO1 (configuration not stated) | 5 | 19
c1cc(-c2ccc(CN(Cc3ccsc3)CC3CCCO3)s2)[nH]n1 (configuration not stated) | 6 | 6
O=c1c2cc3c(cc2nc2sc(Nc4ccc(F)c(F)c4)nn12)OCO3 | 2 | -1
CCOc1ccc(-n2c(C)c(C)n3c4c(=O)n(C(C)C(C)=O)c(=O)n(C)c4nc23)cc1 (configuration not stated) | 0 | 6
Cc1cc(C)nc(N=C(N)N2CCCCC2C)n1 (configuration not stated) | 4 | 3
O=C(c1cnc2ccccc2c1)N1CCOC(c2ccccc2)C1 (configuration not stated) | -9 | -11
Cc1ccccc1OCC1=NN2C(=N)/C(=C/c3ccc4c(c3)OCO4)C(=O)N=C2S1 | -3 | -4
CCOc1ccc(N=Cc2cccc([N+](=O)[O-])c2)cc1 | -6 | -11
CN(C)c1ccc(NC(=O)C2CCC2)cc1CN(Cc1ccc(F)cc1)C(=O)Nc1cccc(F)c1 | 20 | 15
Cc1cccc(C2CCCN(C(=O)CCc3csc(N)n3)C2)c1 (configuration not stated) | -5 | -7
Cc1n[nH]c(=S)n1C1CCCCC1 | 4 | 12
O=C(Nc1cc(F)c(N2CCCC2)c(F)c1)N1CCSCC1 | -1 | -3
Cc1nc2ncnn2c(N2CCN(S(=O)(=O)CCl)CC2)c1Cc1ccccc1 | 3 | 2
Cc1c(S(=O)(=O)CCNC(=O)NC(C)(C)C)c2ccccc2n1Cc1ccc(F)cc1 | 4 | 6
CC(C)C1CN(S(=O)(=O)N(C)C)CCCN1Cc1ccc(F)cc1 (configuration not stated) | 2 | 0
Cc1cc(=O)oc2cc(CN(C)Cc3nncn3C(C)C)ccc12 | -1 | 0
Cc1nn(-c2ccccc2Cl)c(Cl)c1CNCc1ccccc1 | -3 | -4
Cc1ccc(N2C(=O)CC3CS(=O)(=O)CC32)cc1Cl (configuration not stated) | -1 | 5
CC1(C)CC(=O)c2c(nn(-c3ccccc3)c2-c2ccccn2)C1 | 6 | 10
Cc1cc(C(=O)N(CC2CCN(C3Cc4ccccc4C3)CC2)CC2CCCO2)c(C)o1 (configuration not stated) | 0 | -1
O=C(c1cccc(Cl)c1)N1CCCC(OCc2ccc(F)cc2)C1 (configuration not stated) | -10 | -8
COc1ccc(CCNC(=O)c2ccccc2NS(=O)(=O)c2ccccc2F)cc1 | 0 | 8
COc1cc(-c2nc3ccc(Br)cn3c2NC2CCCCC2)ccc1OC(=O)c1cccc2ccccc12 | 12 | 15
Nc1ccc(Oc2ccc([N+](=O)[O-])cc2)cc1 | -11 | -14
CN1CCNC(=O)C12CCN(C(=O)c1ccc3sc(N)nc3c1)CC2 | 22 | 3
Cc1cc(NC(=O)c2cccc(S(=O)(=O)NCc3ccc4c(c3)OCO4)c2)no1 | -5 | -7
CCc1cnn2c(NCc3ccc[n+]([O-])c3)cc(N3CCCC[C@H]3CCO)nc12 | -5 | -8
Cc1ccc(Cc2nsc(Oc3cccc(C(=O)NC(C)C)c3)n2)cc1 | 35 | 31
Cc1nc(N2CCN(C3CCS(=O)(=O)C3)CC2)c(C)c(-n2cccn2)n1 (configuration not stated) | 0 | -4
Cc1cc(C=NNC(=O)c2ccc(Br)cc2)c(C)n1CC(C)C | 1 | 7
CCOC(=O)CNc1c(-c2ccc(OC)c(OC)c2)nc2ccc(Cl)cn12 | 6 | 2
Oc1ccc2cccnc2c1 | 20 | 33
(more compounds)
SMILES | NPYLR7 ag | NPYLR7 ag max-min
CCN(CC(=O)NC(C)C)Cc1nnnn1-c1ccc(C(F)(F)F)cc1 | 13 | 6
Cc1ccccc1N1CCN(C(=O)c2ccc3c(c2)NC(=O)CO3)CC1 | 11 | 10
CCc1ccc(N2CCCn3c2nc2c3c(=O)n(CCOC)c(=O)n2C)cc1 | 3 | 4
O=S1(=O)CCC(=NNc2ccc(Cl)cc2)c2cc(F)ccc21 | -2 | -4
O=C1CSC(c2cccnc2)N1c1ccc(F)cc1 (configuration not stated) | -3 | -9
CCCc1[nH]n(-c2cccc(Cl)c2)c(=O)c1C1=C([n+]2ccccc2)C(=O)N(CC(C)C)C1=O | 12 | 11
Cc1nc(-c2ccncc2)ncc1C(C)NC(=O)c1ncoc1C1CC1 (configuration not stated) | 17 | 8
CC(=O)N1CCN(C(=O)c2c(-c3ccccc3)nn(-c3ccccc3)c2C)CC1 | 11 | 5
Cc1c(CN2CCC(CCC(=O)NCc3ccc(F)cc3)CC2)[nH]c2ccccc12 | 3 | 1
O=C(Cc1ccccc1)N[C@H]1[C@H](O)[C@@H]2O[C@H]1c1ccccc12 | 5 | 11
COC(=O)c1ccccc1NC(=O)CCN1C(=O)c2ccccc2C1=O | -1 | -5
COCCN1N=C(c2ccc(F)cc2)Cn2c1nc1c2c(=O)n(C)c(=O)n1C | 5 | 5
CN1CCCC2(CCN(C(=O)CCn3ccc(=O)[nH]c3=O)C2)C1=O (configuration not stated) | 6 | 5
COc1ccc(-c2nc(CSc3ccoc3C)cs2)cc1OC | 18 | 22
O=C1c2ccccc2C(O)(c2ccccc2)N1CCc1ccccc1 (configuration not stated) | 7 | 5
Cc1ccc(C)n1-c1cnn(CC(=O)NCc2ccco2)c1 | 0 | 14
COc1ccccc1N1CCN(C(=O)c2csc(CSc3nnc(-c4ccncc4)n3-c3cc(Cl)ccc3C)n2)CC1 | 13 | 15
CC1CCCN(C(=O)CSc2nnc(-c3cccs3)n2C)C1 (configuration not stated) | 4 | -1
CC(Oc1ccccc1)C(=O)NC12CC3CC(CC(C3)C1)C2 (configuration not stated) | 3 | 3
CC(C)Sc1nc(=O)n(CCO)c2c1CCCC2 | -7 | -17
OCc1ccc(-c2nn(Cc3ccccc3)c3ccccc23)o1 | 1 | -18
CC1(C)Cc2c(cnn2-c2ccccc2)C(NC(=O)c2ccc(Cn3cnnn3)cc2)C1 (configuration not stated) | 9 | 9
O=C(c1ccccc1Oc1cccc(Br)c1)N1CCC(O)CC1 | 11 | 7
COc1cn(CC(=O)NCc2ccco2)c(CN2CCN(c3ccccc3)CC2)cc1=O | -3 | -4
CC(=O)c1ccc(NC(=O)c2cc(-c3ccccc3)nc3ccccc23)cc1 | -9 | -11
Cc1cc(C2CCCN2C(=O)NCC(C)C)on1 (configuration not stated) | 1 | -4
CCOC(=O)c1ccc2c(c1)nc(SCc1cc(OC)cc(OC)c1)n2CCc1ccc(OC)cc1 | -2 | -1
Cc1ncsc1CN(Cc1ccccc1)Cc1ccncc1 | 5 | 3
O=C(Nc1ccc(Cl)cc1)C(C1CCCC1)N1CCN(C(=O)c2cc(F)cc(F)c2)CC1 (configuration not stated) | -1 | 2
O=C(CC1Cc2ccccc2C1)N1CCC2(CCc3ccccc32)C1 (configuration not stated) | -2 | 4
O=C1OC(c2ccccc2F)=N/C1=C\c1ccc(OCc2ccccc2)cc1 | 1 | 7
CC(=O)N(CCCN(C)C)c1nc2c(Cl)cccc2s1 | 8 | 4
CN(C)CCCN(C(=O)Cc1ccccc1)c1nc2c(F)cc(F)cc2s1 | 8 | 9
O=c1ccc2cc(S(=O)(=O)Nc3ccc(Cl)cc3)ccc2o1 | -1 | -5
C=CCCC(O)CN(Cc1cccc(OC)c1)C1CC1 (configuration not stated) | 25 | 26
O=C1Nc2ccccc2NC12CCN(c1ncnc3c1CCNC3)CC2 | 19 | 12
CNC(=O)[C@@]1(OCc2cccc(C)c2)CC(OCc2ccc(F)cc2)[C@@H]2OC(C)(C)O[C@@H]2C1 (some centres not stated) | 19 | 11
CSC(C)(C)CC(C)NC1CCN(Cc2cccnc2)CC1 (configuration not stated) | 38 | 25
C#CCNS(=O)(=O)c1ccc(C(=O)NC(C)c2ccccc2OC)cc1 (configuration not stated) | 5 | 2
CCCN(C)c1cc(-c2ccccc2)nc(SCc2cccc(C(=O)NC3CC3)c2)n1 | 9 | 0
Cc1csc2cc(C(=O)N3CCC(C(N)=O)CC3)cnc12 | -2 | -3
COc1cc(OC)cc(C(=O)Nc2nc(-c3ccccc3)cs2)c1 | 2 | 1
COc1cccc(C(CN2CCN(S(=O)(=O)c3cccc(C#N)c3)CC2)OCc2cccc(Cl)c2)c1 (configuration not stated) | -10 | -10
Cc1nc2ncccn2c1C(=O)N1CCOC(CCc2ccccc2)C1 (configuration not stated) | 21 | 8
COCC(=O)NC1CCN(c2ccccc2C(=O)NCCc2ccccc2OC)CC1 | 1 | 12
COc1ccc(-c2cc(C(F)(F)F)n3nc(C(=O)N4CCN(C)CC4)cc3n2)cc1 | 4 | 3
CCOc1ccc(OCC(=O)N2CCN(c3nccn3-c3ccccc3F)CC2)cc1 | 1 | 6
COC(=O)c1cccc(C(=O)OC2CCOC2)c1 (configuration not stated) | 2 | 0
CC(C)c1nc(CN(C)C(=O)c2cnn(Cc3ccccc3)c2)cs1 | -1 | -2
CC(C)(C)c1ccc(C(=O)Nc2nnc(-c3ccco3)s2)cc1 | 1 | 5
Further entries:
SMILES | NPYLR7 ag | NPYLR7 ag max-min
CC(C)c1ccc(NC(=O)O[C@@H]2CO[C@H]3[C@@H]2OC[C@@H]3NC(=O)c2cnccn2)cc1 | -9 | -16
CCN(CC)C(=O)COc1cc(NCc2nc(C)no2)ccc1OC | -7 | -7
CCCCCNC(=O)CN(Cc1ccccc1)c1nc(Cc2ccc(F)cc2)ns1 | -10 | -12
COc1ccc2nc(N(Cc3cccnc3)C(=O)c3ccc(C#N)cc3)sc2c1 | -24 | -20
O=C1CNc2ccc(C(=O)N3C[C@@H]4C5CCC(CC5)[C@@H]4C3)cc2N1 | 0 | -2
Cc1ccc(NS(=O)(=O)c2cccc(C(F)(F)F)c2)c([N+](=O)[O-])c1 | 4 | 0
N#Cc1ccc(S(=O)(=O)N2CCN(Cc3c(O)ccc4ccncc34)CC2)cc1 | 4 | 1
S=c1[nH]c(-c2ccccc2)cn1N=Cc1cccnc1 | -3 | -5
ClC1(Cl)CC1Cn1c(Cc2ccccc2)nc2ccccc21 (configuration not stated) | 10 | 9
CCc1nc(C)cn1S(=O)(=O)c1cc(OC)c(C)cc1C | 1 | 4
CCSc1nc(N2CCOCC2)c2cnn(CCNC(=O)c3cccc(F)c3)c2n1 | -1 | 0
Cc1ccc(CN(CCc2ccccc2)C(=O)CN(CC2CCCO2)C(=O)Nc2ccccc2C)o1 (configuration not stated) | -5 | -17

In the list so far, these contain a Cl atom:
SMILES | NPYLR7 ag | NPYLR7 ag max-min
Cc1nc2ncnn2c(N2CCN(S(=O)(=O)CCl)CC2)c1Cc1ccccc1 | 3 | 2
Cc1nn(-c2ccccc2Cl)c(Cl)c1CNCc1ccccc1 | -3 | -4
Cc1ccc(N2C(=O)CC3CS(=O)(=O)CC32)cc1Cl (configuration not stated) | -1 | 5
O=C(c1cccc(Cl)c1)N1CCCC(OCc2ccc(F)cc2)C1 (configuration not stated) | -10 | -8
CCOC(=O)CNc1c(-c2ccc(OC)c(OC)c2)nc2ccc(Cl)cn12 | 6 | 2
O=S1(=O)CCC(=NNc2ccc(Cl)cc2)c2cc(F)ccc21 | -2 | -4
CCCc1[nH]n(-c2cccc(Cl)c2)c(=O)c1C1=C([n+]2ccccc2)C(=O)N(CC(C)C)C1=O | 12 | 11
COc1ccccc1N1CCN(C(=O)c2csc(CSc3nnc(-c4ccncc4)n3-c3cc(Cl)ccc3C)n2)CC1 | 13 | 15
O=C(Nc1ccc(Cl)cc1)C(C1CCCC1)N1CCN(C(=O)c2cc(F)cc(F)c2)CC1 (configuration not stated) | -1 | 2
CC(=O)N(CCCN(C)C)c1nc2c(Cl)cccc2s1 | 8 | 4
O=c1ccc2cc(S(=O)(=O)Nc3ccc(Cl)cc3)ccc2o1 | -1 | -5
COc1cccc(C(CN2CCN(S(=O)(=O)c3cccc(C#N)c3)CC2)OCc2cccc(Cl)c2)c1 (configuration not stated) | -10 | -10
ClC1(Cl)CC1Cn1c(Cc2ccccc2)nc2ccccc21 (configuration not stated) | 10 | 9

Only part of the results is shown (hit frequency here may not be typical).
